Assay outcomes from PubChem BioAssay.
Rango-impB inh: prevents formation of the Rango-importin beta complex. Q14974. Rango CFP/YFP FRET sensor + importin beta, 45 min. Potency, µM (highest dose often 92.2 µM), without a hit: at the highest dose inhibition of complex formation. 0.031% of 340,000 active; active = rising FRET ratio curve, often small or poorly fitted; inconclusive = mostly compound fluorescence or quenching in the first reads; inactive = flat curves in all reads;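 note: potency is the fitted concentration of half-maximal effect; 0% = DMSO wells and 100% = buffer wells lacking importin beta; nearly all actives have a fitted effect of over 15% in size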
Target sequence (Q14974 whole entry, looked up): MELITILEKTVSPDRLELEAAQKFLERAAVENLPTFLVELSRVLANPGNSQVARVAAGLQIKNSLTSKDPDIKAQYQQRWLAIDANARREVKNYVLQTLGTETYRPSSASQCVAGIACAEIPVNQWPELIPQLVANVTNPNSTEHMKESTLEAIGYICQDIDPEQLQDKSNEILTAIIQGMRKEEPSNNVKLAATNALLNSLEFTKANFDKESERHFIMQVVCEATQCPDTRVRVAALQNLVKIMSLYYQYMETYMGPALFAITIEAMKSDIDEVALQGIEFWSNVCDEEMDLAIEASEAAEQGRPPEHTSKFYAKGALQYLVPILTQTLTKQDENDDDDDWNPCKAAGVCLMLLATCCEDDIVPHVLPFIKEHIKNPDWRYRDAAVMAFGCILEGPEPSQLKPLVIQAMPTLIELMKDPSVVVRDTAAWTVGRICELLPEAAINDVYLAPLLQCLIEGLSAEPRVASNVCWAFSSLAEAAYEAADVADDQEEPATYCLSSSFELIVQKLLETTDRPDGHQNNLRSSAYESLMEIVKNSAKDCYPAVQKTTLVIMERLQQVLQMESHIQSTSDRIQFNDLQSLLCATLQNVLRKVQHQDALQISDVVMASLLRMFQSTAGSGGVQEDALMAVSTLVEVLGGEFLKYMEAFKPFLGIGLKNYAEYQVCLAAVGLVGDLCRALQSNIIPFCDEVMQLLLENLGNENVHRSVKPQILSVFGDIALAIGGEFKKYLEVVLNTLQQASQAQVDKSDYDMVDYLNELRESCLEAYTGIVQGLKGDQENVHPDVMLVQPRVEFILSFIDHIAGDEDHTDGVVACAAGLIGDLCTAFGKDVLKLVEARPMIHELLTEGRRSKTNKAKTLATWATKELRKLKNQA
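FRET biosensor Rango (snurportin 1 IBB between N-terminal EYFP and C-terminal Cerulean), 50 nM in PBS/1 mM DTT/0.02% Tween-20/0.1% BSA, preincubated 5 min RT with compound; 0.125 microM importin beta added, 45 min RT, CFP/YFP FRET ratio read.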
GLA inh pH 4.5: blocks human alpha-galactosidase A at pH 4.5; purified enzyme, 4-MU-alpha-Gal fluorescence, pH 4.5; activity change, negative = inhibition, % at 105 µM; 230,000 tested, under 10 active; AID 1467; inconclusive = small, poorly fitted or top-dose-only inhibition, or a rising curve; inactive = flat fitted curve, though single readings scatter; no compound was filed as active;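 note: 0% = full activity with enzyme and -100% = basal without enzyme; dose as in the result columns while the protocol names 77 µM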
miR-21 FLuc: miR-21 reporter, rising signal. HeLa miR-21 FLuc reporter, luciferase, 48 h. Potency, µM (highest dose often 38.3 µM), without a hit: at the highest dose reporter change, positive = more light. 340,000 tested, under 10 active. AID 2288; active = well fitted rising curve with a large enough effect; inconclusive = small, poorly fitted or top-dose-only effect; inactive = no such curve, though single readings can be large or run the other way;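 note: % of control where 0% means no effect; miR-21 action dims this reporter so a rising signal means less miR-21 action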
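HeLa cells endogenously expressing miR-21, stably carrying CMV-driven firefly luciferase with a downstream miR-21 binding site, 2000 cells/well. Titrations up to approximately 40 uM, 48 hours; luciferase luminescence read.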
Rango dissoc inh: prevents RanGTP from dissociating the Rango-importin beta complex; O95149+P62826; Biochemical FRET Rango-importin beta, RanGTP-induced dissociation; Potency, µM (titrated, usually from 46.1 µM), for the others: at the highest dose activity change, negative = inhibition; 0.071% of 340,000 active; AID 540253; active means falling FRET ratio curve, often poorly fitted, with flat reads before Ran was added; inconclusive means other falling curves, or compound fluorescence or quenching; inactive means flat or rising ratio curve;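 note: potency is the fitted concentration of half-maximal effect; % of control where 0% means no effect; nearly all actives have a fitted effect of over 45% in size; -100% = wells without RanGTP and RCC1; the record marks most hits as doubtful in a second field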
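Two FRET readings bracket the reaction: one 5 min after compound meets Rango–importin beta, another 45 min after RanGTP-RCC1 (0.6 uM Ran, 0.2 uM RCC1, 2 mM GTP) is added. Only the second defines inhibition.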
* marks the source's active call; other numbers are inactive results; ? = inconclusive; · = no result given; [ ] = another dose, or the depositor's remark. These rows are one share of the data, so the mix of outcomes need not match the whole.

Values in the order: Rango-impB inh | GLA inh pH 4.5 | miR-21 FLuc | Rango dissoc inh
1: COc1cc(C2NC(=O)c3ccccc3O2)ccc1OC(C)C (stereo not given)
  1.2% | · | -4% | -17%
2: CN1C(=O)N(c2ccccc2)C(Nc2nncs2)C1(C)C (stereo not given)
  5.4% | 3 | 1% | 6%
3: CC1(C)OC(C)(C)/C(=C\c2ccc(OCC(N)=O)cc2)C1=O
  -0.5% | · | · | ?
4: O=C(COc1cccc2ccccc12)N/N=C/c1ccncc1
  -2.3% | -8 | 0% | 22%
5: CCOc1ccccc1NC(=O)NC1CCCCCCC1
  0.0% | · | -2% | -4%
6: CSc1nc2[nH]ncc2c(=O)n1-c1ccccc1
  -2.1% | -15 | -5% | 27%
7: O=C(NN=C1CCCC1)c1ccccc1OCc1ccc(Cl)cc1
  1.6% | 2 | 3% | 5%
8: O=C(OCC#Cc1c(COC(=O)c2ccccc2)nnn1Cc1ccccc1)c1ccccc1
  1.2% | -2 | -1% | 15%
9: CCCCN(CCCC)S(=O)(=O)c1ccc(NS(=O)(=O)c2ccc(NC(C)=O)cc2)cc1
  0.7% | -4 | -8% | -13%
10: Cc1ccc(S(=O)(=O)NC(=O)Nc2cc(C)ccc2F)cc1
  -1.7% | · | -4% | -11%
11: C[C@H]1CN([C@@H](C)CO)C(=O)c2cccc(NC(=O)c3cnccn3)c2O[C@@H]1CN(C)S(=O)(=O)c1ccc(F)cc1
  -2.8% | · | · | 10%
12: COc1cc(/C=N/NC(=O)CNC(=O)c2ccc3c(c2)OCCO3)ccc1O
  -0.3% | 0 | -2% | 5%
13: Nc1nc(SCC(=O)Nc2cc(Cl)c(Cl)cc2Cl)n[nH]1
  -0.7% | · | · | -15%
14: COc1ccc(S(=O)(=O)N2CCOc3ccccc32)cc1
  -1.6% | · | 24% | -7%
15: COC(=O)c1cc2occc2n1CC(=O)Nc1ccc(OC)c(OC)c1OC
  5.2% | 9 | 1% | -13%

Structures from the list above that have an NH in an aromatic ring, in the order listed:
Values in the order: Rango-impB inh | GLA inh pH 4.5 | miR-21 FLuc | Rango dissoc inh
6: CSc1nc2[nH]ncc2c(=O)n1-c1ccccc1
  -2.1% | -15 | -5% | 27%
13: Nc1nc(SCC(=O)Nc2cc(Cl)c(Cl)cc2Cl)n[nH]1
  -0.7% | · | · | -15%

(next part)
Values in the order: Rango-impB inh | GLA inh pH 4.5 | miR-21 FLuc | Rango dissoc inh
16: C=C(C)[C@@H]1CC=C(C(=O)O)CC1
  2.5% | -3 | -5% | -16%
17: Cc1c(-n2c(SCC(C)C)nc3ccccc3c2=O)c(=O)n(-c2ccccc2)n1C
  4.0% | -5 | -15% | 11%
18: CCc1cc(=O)oc2cc(C)cc(OCC(=O)N3CCC(C(=O)NC(C)C)(c4ccccc4)CC3)c12
  0.1% | · | 10% | 3%
19: CCOc1ccc(NS(=O)(=O)c2ccc(NC(=S)NC(=O)CC(C)C)cc2)cc1
  7.5% | -2 | 20% | 6%
20: COc1ccc(NC(=S)NCc2ccc3c(c2)OCO3)cc1
  -5.0% | 2 | -6% | 0%
21: CCN1CCN(c2cc(N3CCN(C(=O)c4ccco4)CC3)c3c4c(onc24)-c2ccccc2C3=O)CC1
  33µM* | · | 5% | ?
22: C/C(=N\NC(=O)c1cc2c(s1)CCC(C)C2)c1ccncc1 (stereo not given)
  0.0% | -11 | -34% | -20%
23: Nc1nonc1-n1nnc(C(=O)N/N=C/c2ccncc2)c1-c1ccccc1
  -1.0% | · | 3% | 22%
24: COc1nnc(-c2ccc(N3CCCCC3)c(NC(C)=O)c2)c2ccccc12
  4.3% | 0 | -9% | -9%
25: CC12CCC(=O)N1C(C(=O)Nc1cccc3ccccc13)CS2 (stereo not given)
  -1.3% | -1 | -2% | 2%
26: Cc1cc(NC(=O)C2C3C(=O)N(CC4CCCO4)C(C(=O)NC(C)(C)C)C34C=CC2(C)O4)no1 (stereo not given)
  1.3% | -1 | 0% | 12%
27: CCOC(=O)C1C(=O)CC(C)(O)C(C(=O)OCC)C1c1ccc(N(CC)CC)cc1 (stereo not given)
  5.9% | -1 | 5% | -7%
28: COc1ccccc1-n1cnc2cc(NCc3cccs3)ccc21
  0.5% | -3 | 2% | 21%
29: OC[C@@H]1CCCN1Cc1nc(-c2cccs2)no1
  0.2% | 3 | -22% | -12%
30: O=C(Nc1ncn[nH]1)c1ccccc1O
  0.5% | -9 | -13% | 0%

More structures follow.
Values in the order: Rango-impB inh | GLA inh pH 4.5 | miR-21 FLuc | Rango dissoc inh
31: O=C(CSc1ccc2nnc(-c3ccncc3)n2n1)Nc1ccccc1F
  2.1% | -3 | -2% | -10%
32: O=C(CSCC(=O)c1ccccc1)Nc1ccccc1Cl
  -2.6% | 0 | -14% | 6%
33: CC(C)CN(C(=O)COC(=O)C12CC3CC(CC(Cl)(C3)C1)C2)c1c(N)n(Cc2ccccc2)c(=O)[nH]c1=O
  -3.4% | · | · | -12%
34: COc1ccc(C(=O)N/N=C/c2sc3ccccc3c2O)cc1
  ? | -12 | -7% | ?
35: Cc1ccc(N2C(=O)CSC2=S)cc1C
  -0.2% | 1 | 1% | -9%
36: COc1ccc(CN2C(=O)C(C)Nc3ncnc(N4CCN(c5ccccc5)CC4)c32)cc1 (stereo not given)
  -3.9% | · | · | -6%
37: O=C(NCC1CCCCC1)C1(CC2CC(c3ccc(Cl)cc3)=NO2)CCNCC1 (stereo not given)
  2.2% | · | 28% | -14%
38: O=C(O)CC(CC(=O)N1CCN(C(=O)c2ccco2)CC1)c1ccccc1 (stereo not given)
  1.9% | · | -1% | -4%
39: O=C(NC1CCCCC1)C(c1ccccc1)N1CCCC1 (stereo not given)
  0.8% | 6 | -9% | -8%
40: CCc1ccc(N2CC(C(=O)OCC(=O)N(CC)c3c(N)n(Cc4ccccc4)c(=O)[nH]c3=O)CC2=O)cc1 (stereo not given)
  -3.5% | · | · | 3%
41: N#CC1=C(N)Oc2cc(O)ccc2C1c1ccccc1 (stereo not given)
  ? | 2 | 1% | ?
42: CCN(CC)S(=O)(=O)c1cc(NC(=O)CN2CCN(c3ccccn3)CC2)ccc1C
  -2.2% | -2 | 10% | -10%
43: COc1ccc(N2CCN(S(=O)(=O)c3ccc4c(c3)CCCC4)CC2)c([N+](=O)[O-])c1
  5.5% | 2 | 5% | -5%
44: O=C(CSc1nnc(NC(=O)C2CCC2)s1)Nc1ccccc1Br
  0.1% | · | -3% | 19%
45: CCOC(=O)c1c[nH]c2c(Cl)c(Cl)ccc2c1=O
  -7.2% | 1 | -1% | 3%

Nos. 43 through 45 from above:
Values in the order: Rango-impB inh | GLA inh pH 4.5 | miR-21 FLuc | Rango dissoc inh
43: COc1ccc(N2CCN(S(=O)(=O)c3ccc4c(c3)CCCC4)CC2)c([N+](=O)[O-])c1
  5.5% | 2 | 5% | -5%
44: O=C(CSc1nnc(NC(=O)C2CCC2)s1)Nc1ccccc1Br
  0.1% | · | -3% | 19%
45: CCOC(=O)c1c[nH]c2c(Cl)c(Cl)ccc2c1=O
  -7.2% | 1 | -1% | 3%

Entries by screen from the entries so far:
Rango-impB inh for nos. 36 to 40 → -3.9%, 2.2%, 1.9%, 0.8%, -3.5%

Additional results follow.
Values in the order: Rango-impB inh | GLA inh pH 4.5 | miR-21 FLuc | Rango dissoc inh
46: O=C(NCCCc1ccncc1)C1CCC(=O)N(Cc2cccc(F)c2)C1 (stereo not given)
  0.4% | · | -1% | 1%
47: CCOc1ccc(N=Cc2c(C)[nH]n(-c3nc4ccccc4[nH]3)c2=O)cc1
  5.3% | 3 | -4% | 10%
48: COc1ccc(N2CCN(C(=O)COc3cccc4ccccc34)CC2)cc1
  -2.8% | · | -12% | 1%
49: CC(=O)c1ccc(OCc2ccccc2)c(C)c1O
  3.7% | -2 | -53% | 31%
50: O=C(NCc1ccccc1)c1ccccc1-c1nc2ccccc2[nH]1
  2.5% | -4[21.1 µM] | -6% | ?
51: CC(=O)Nc1ccc(Nc2c([N+](=O)[O-])cc(S(C)(=O)=O)cc2[N+](=O)[O-])cc1
  -0.8% | 0 | -2% | 17%

Record cards (already shown). Order of values: Rango-impB inh | GLA inh pH 4.5 | miR-21 FLuc | Rango dissoc inh
O=C(NCCCc1ccncc1)C1CCC(=O)N(Cc2cccc(F)c2)C1 (stereo not given) is listed as 0.4% | · | -1% | 1%
CC(=O)c1ccc(OCc2ccccc2)c(C)c1O is listed as 3.7% | -2 | -53% | 31%
CCOc1ccc(N=Cc2c(C)[nH]n(-c3nc4ccccc4[nH]3)c2=O)cc1 is listed as 5.3% | 3 | -4% | 10%
CC(=O)Nc1ccc(Nc2c([N+](=O)[O-])cc(S(C)(=O)=O)cc2[N+](=O)[O-])cc1 is listed as -0.8% | 0 | -2% | 17%
COc1ccc(N2CCN(C(=O)COc3cccc4ccccc34)CC2)cc1 is listed as -2.8% | · | -12% | 1%
